High-throughput results as filed in PubChem.
SmPrx2 inh – Schistosoma Mansoni Peroxiredoxins (Prx2); Schistosoma mansoni peroxiredoxin 2 (Prx2); S. mansoni Prx2 activity coupled to TGR/GSH (TGR is thioredoxin glutathione reductase), NADPH fluorescence loss, qHTS; some inactives read as strong as hits; Potency, µM; 65,000 tested, 0.07% active; active means full or partial inhibition curve with a strong effect at the top dose; inconclusive means weaker partial or single-point curve; inactive means no accepted curve; also: series up to 57 µM; many of its hits are not listed in these tables
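Coupled assay in which S. mansoni TGR passes NADPH reducing equivalents via glutathione to Prx2, which reduces H2O2. Compounds were preincubated 15 min at room temperature with 25 nM TGR/50 nM Prx2 mix. Kinetic NADPH fluorescence loss (ex 365/em 450 nm) was monitored.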
LT uptake inh – qHTS Assay for Anthrax Lethal Toxin Internalization. Cells, anthrax lethal toxin internalization, FRET ratio (460/530). Potency, µM (titrated, usually from 40 µM), without a hit: top-dose activity change, negative = inhibition, actives largely listed as inhibitors. 70,000 tested, 0.67% active. AID 912, 2007; active = well fitted falling ratio curve with the 530 nm signal flat; inconclusive = other ratio curves, or a change in one channel alone; inactive = flat curves in the ratio and both channels; the % refers to the ratio; also: % is scaled to controls: 0 for no effect and ±100 for the full control effect; nearly all actives have a fitted effect of over 50% in size; tested in ME-180 cells; beta-lactamase reporter
* hit, by the source's call; u = inconclusive; x = no result given; & = joins results of further samples; [ ] = remark or other dose. Potency is read from the fitted curve at half-maximal effect. This is a subset; the hit share may differ from the screen's.

SMILES	SmPrx2 inh	LT uptake inh
CCOC(=O)N1CCN(C(=O)CS(=O)(=O)Cc2nc(-c3ccccc3C)oc2C)CC1	>57	-8%
O=C(Nc1ccc(F)cc1)N(CCCN1CCOCC1)Cc1cc2cc3c(cc2[nH]c1=O)OCCO3	>57	17%
O=C(COC(=O)C1CCN(C(=O)c2ccc(Cl)cc2)CC1)c1ccco1	>57	10%
Cc1nc2ccccc2c2oc(C(=O)NCCN3CCN(C)CC3)cc12	>57	u
COc1ccc(-c2noc(CCCc3ccccc3)n2)cc1OC	>57	-16%
CCC(C)(C)N1CC(=O)N(Cc2ccccc2)C(c2ccc(OC)cc2)C1=O (stereo not given)	>57	2%
Cc1ccc2nnc(Cl)n2n1	>57	7%
CCn1c(SCC(=O)Nc2nc3c(s2)CCCC3)nnc1-c1ccccc1	>57	-6%
CC(=O)c1c(C)nc2ccccc2c1N	x	-17%
O=C(Cn1cccc1C(=O)c1ccccc1)NCCN1CCOCC1	>57	10%
CCC1CCCCN1C(=O)CSc1nc2c([nH]c3ccccc32)c(=O)n1C (stereo not given)	>57	11%
Cc1cccc(OCC(=O)N(Cc2cccs2)C2CCS(=O)(=O)C2)c1C (stereo not given)	>57	-11%
CSc1cccc(NS(=O)(=O)c2ccccc2)c1	x	-17%
CCOC(=O)c1ccc(NC(=O)COc2ccc(S(=O)(=O)NC(C)C)cc2)cc1	>57	-6%
Cn1c(=O)[nH]c(=O)c2c1nc(NCCCO)n2Cc1ccc(F)cc1	>57	-15%
Cc1ccc(-c2nn(C)c(=O)c3ccccc23)cc1CO	>57	6%
O=C(NCCn1ccc2ccccc21)c1ccc2c(c1)OCO2	>57	8%
Cc1csc2nc(CCNS(=O)(=O)c3ccc4c(c3)OCCO4)cn12	>57	9%
CCOC(=O)C1=C(C)NC(C)=C(C(=O)OCC)C1C(=O)OCC(=O)c1ccc2c(c1)OCCO2	>57	15%
Cn1c(=O)cc(OCC(=O)N2CCN(c3cccc(C(F)(F)F)c3)CC2)c2ccccc21	>57	-17%
CCS(=O)(=O)NCCc1cc2c(OC)ccc(OC)c2[nH]c1=O	>57	7%
O=C(CCCn1c(SCC(=O)c2ccc(O)c(O)c2)nc2ccccc2c1=O)NCC1CCCO1 (stereo not given)	>57	5%
Cc1nc(NC(=O)c2cccnc2)ccc1Br	>57	20%
CC(=O)c1ccc(-n2nncc2C)cc1	>57	-9%

Arranged by count of non-hydrogen atoms (smallest number first): some entries from above.
SMILES	SmPrx2 inh	LT uptake inh
Cc1ccc(-c2nn(C)c(=O)c3ccccc23)cc1CO	>57	6%
CCS(=O)(=O)NCCc1cc2c(OC)ccc(OC)c2[nH]c1=O	>57	7%
CCOC(=O)C1=C(C)NC(C)=C(C(=O)OCC)C1C(=O)OCC(=O)c1ccc2c(c1)OCCO2	>57	15%

Following part:
SMILES	SmPrx2 inh	LT uptake inh
COc1cc(OC)cc(C(=O)OCn2nnc3ccccc3c2=O)c1	>57	-10%
COc1cccc(/C=N/n2c(C)c3c(C)nnc(C)c3c2C)c1O	>57	u
CCCn1c(SCc2cc(=O)oc3ccc4ccccc4c23)n[nH]c1=O	>57	u
O=C(CCc1nc(-c2ccccc2F)no1)NC1CCCCCC1	>57	15%
CCCCN1C(=O)c2ccc(C(=O)Nc3c(N)n(CCCC)c(=O)n(C)c3=O)cc2C1=O	>57	0%
CN(C)c1ncc2ncc(=O)n(C3CC3)c2n1	>57	-4%
CCC(=O)N1Cc2ccccc2-c2ccccc2C1=O	>57	-6%
Cc1c(O)c(CN2CCCC2)cc2c3c(c(=O)oc12)CCC3	>57	u
Cc1cc(C)n2nc(C(=O)Nc3ccccc3N3CCOCC3)nc2n1	>57	-5%
Cc1csc(N(C)C(=O)CSc2nnc(COc3cccc4ccccc34)o2)n1	>57	-8%
CC(=O)Nc1cccc(OCC(=O)NS(=O)(=O)c2ccc(C)cc2)c1	>57	5%
CCOC(=O)CSc1nc2c(c(=O)[nH]c(=O)n2C)n1CCCc1ccccc1	>57	x
COc1ccc(-c2noc(C3CCCN(C(=O)c4cccs4)C3)n2)cc1 (stereo not given)	>57	-6%
COc1ccc(CN2CCCCC2C(=O)Nc2ccc(OC)c(OC)c2)cc1OC (stereo not given)	>57	6%
CC(NS(=O)(=O)c1ccc(OCC(=O)N2CCOCC2)cc1)c1ccccc1 (stereo not given)	>57	6%
COc1cc(C(=O)OC(C)CN2CCCC2)cc(OC)c1OC (stereo not given)	>57	u
CCC(c1nnnn1CCC(C)C)N1CCC(C(N)=O)CC1 (stereo not given)	>57	-1%
O=C(OCn1nnc2ccccc2c1=O)c1ccc(S(=O)(=O)N2CCOCC2)cc1	>57	-14%
CCOCCCn1c(=N)c(C(=O)Nc2cc(C)on2)cc2c(=O)n3ccccc3nc21	>57	-7%
CCOC(=O)COc1c(OC)cc(Cl)cc1C1NC(=O)NC(C)=C1C(C)=O (stereo not given)	>57	5%
Cn1c(=O)c2c(nc(NC3CCCCC3)n2Cc2ccccc2)n(C)c1=O	>57	14%
O=C1CC(C2CCCO2)C(=O)N1Cc1ccccc1 (stereo not given)	>57	-9%
COc1cccc(C(c2sc3nc(C)nn3c2O)N2CCN(C(=O)c3ccco3)CC2)c1 (stereo not given)	>57	17%
COc1cc2nc(CC(C)C)n(NC(=O)c3ccccc3)c(=O)c2cc1OC	>57	-15%
C=CCSc1nc2c(c(=N)n1CC=C)C1CCCC1S2 (stereo not given)	>57	-1%
O=C(Nc1ccncc1)C1CCCN(S(=O)(=O)c2cccc3cccnc23)C1 (stereo not given)	>57	-15%
Cc1cc(C)n(-c2nnc(C)n2/N=C/c2ccccc2OCc2ccccc2Cl)n1	>57	-7%
O=C(OCC(=O)N1CCN(C(=O)c2ccco2)CC1)c1ccccc1OCc1ccccc1	>57	10%
Cc1cnc(CNc2nc(-c3ccoc3)nc3ccccc23)cn1	>57	-9%
Cc1cc(NC(=O)CCC(=O)N(c2cccnc2)C(C(=O)NC2CCCC2)c2ccccc2F)no1 (stereo not given)	>57	u
COC(=O)[C@H](CCSC)NC(=O)Nc1ccc(OC)c(Cl)c1	>57	-18%
CC(C)(C)c1nc2ccccc2c2nnc(SCC(=O)NCc3ccco3)n12	>57	-6%
CC(C)NC(=O)CCCc1ccccc1	>57	-9%
Cc1cccc(CN(C)C)c1OC(=O)N(C)C	>57	u
CCN(CC)CCCNC(=O)c1cc(-c2ccc(O)cc2)on1	>57	-2%
CC[C@H](NC(C)C)[C@H](O)c1ccc(O)c(O)c1	>57&>57	8%[3.58 µM]
O=C1c2ccccc2C(=O)N1CC1=CCS(=O)(=O)C1	>57	u
COc1cccc(S(=O)(=O)Nc2ccc3sc(C)nc3c2)c1	>57	-5%
Cc1cc(C)n(-c2cc(N3CCOCC3)nc(-c3ccccc3)n2)n1	>57	-2%
CCNC(=O)c1c(O)c2cccc3c2n(c1=O)CC3	>57	10%
CCOC(=O)C1CCCN(Cc2cc(Br)c(OC)cc2OC)C1 (stereo not given)	>57	-12%
COCCCNC(=O)c1cc2c(-c3ccc(Cl)cc3)nn(C)c2s1	>57	-14%
CCOC(=O)CNC(=O)CSc1nnc(SCC(=O)NCC(=O)OCC)s1	>57	2%
CN1CCN(c2nc(-c3cccc(NS(C)(=O)=O)c3)nc3ccccc23)CC1	>57	-10%
C=CCNc1ncnc2c1cnn2-c1cccc(C)c1	>57	-22%
CCCC(=O)Nc1ncnc2c1ncn2[C@@H]1O[C@H]2COP(=O)(O)O[C@@H]2[C@@H]1OC(=O)CCC	>57	3%[3.58 µM]
Cc1ccc(C)cc1	x	0%
CC(=NCCN1CCCCC1)c1c(O)[nH]c(=O)[nH]c1=O	>57	3%
C#CCOC(=O)CCCC(=O)Nc1ccccc1OC	x	2%
CC(=O)N1CCC[C@@]2(CCN(c3ncccn3)C2)C1	>57	u
O=C(Nc1ccc2c(c1)OCO2)N1CCN(c2ncccn2)CC1	>57	x
COc1ccccc1-c1ccc2ncnc(NCc3cnc(C)cn3)c2c1	>57	-22%
CC(=O)Nc1cccc(C(=O)N2CCN(Cc3ccccc3)CC2)c1	>57	-11%
CC(C)CN1CC[C@@]2(CCCN(C(=O)c3ccco3)C2)C1	>57	6%
CC(C)OC(=O)CCC(=O)Nc1nc2ccccc2s1	>57	-11%
O=C1CCCC=C1[C@@H](O)CCOCc1ccccc1	x	-5%[8 µM]
N#Cc1cccc(NC(=O)N2CCCC3(CCN(C(=O)c4ccco4)CC3)C2)c1	>57	u
COc1ccccc1NC(=O)c1nnn(CC(=O)Nc2ccccc2)c1N	>57	-4%
CCCCc1cc(O)c(CCCC)c(O)c1	>57	u
O=C(NCc1ccco1)c1c(O)c2cccc3c2n(c1=O)CCC3	>57	-3%
The listing continues:
SMILES	SmPrx2 inh	LT uptake inh
CC(C)C(c1nnnn1Cc1ccc(F)cc1)N1CCSCC1 (stereo not given)	>57	-4%
COc1ccc(C(=O)NC(C)c2nnc(SCC(=O)Nc3nc4ccccc4s3)n2C)cc1 (stereo not given)	>57	x
CCOC(=O)CNC(=O)CSc1nnc(Cn2cnc3ccccc32)n1C	>57	1%
O=C(NCc1cccs1)c1cnc2sccn2c1=O	>57	-5%
CCOC(=O)CSc1nnc(-c2ccc(Cl)cc2Cl)o1	>57	-7%
Cc1cccc(NC(=O)CCN2CCN(C/C=C/c3ccccc3)CC2)c1	>57	-5%
COc1cc(OC)c(C(=O)Nc2ncn[nH]2)cc1OC	>57	-9%
COc1cccc(-n2nnc3c(=O)n(CC(=O)N4CCCCC4)cnc32)c1	>57	0%
COc1ccc(N2CC(C(=O)Nc3ccc(N4CCOCC4)cc3)CC2=O)cc1 (stereo not given)	>57	5%
O=C(c1ccc2c(=O)n(CC3CCCO3)c(=S)[nH]c2c1)N1CCN(c2ccccc2)CC1 (stereo not given)	>57	-11%
O=CN1CCC(=O)N(Cc2ccccc2)c2ccccc21	>57	15%
COC(C1CCCCC1)C(C)C(OCc1cccc(Br)c1)C(C)CO (stereo not given)	x	-26%[8 µM]
COC(=O)C1=C(C)n2cnnc2NC1c1ccc(Cl)cc1 (stereo not given)	>57	u
CCCC(C)(C)NC(=O)CCCCC(=O)NC(C)(C)CCC	>57	-7%
N#Cc1cccc(NC(=O)N2CCCC3(CCN(C(=O)c4cc(C(F)(F)F)cc(C(F)(F)F)c4)CC3)C2)c1	>57	u
O=C(Cn1nnc2ccccc2c1=O)Nc1ccc2c(c1)CCC2	>57	u
COc1ccc(CN2CCN(c3ccccc3F)CC2)c(OC)c1	>57	1%
Cc1nc2cncnc2n(Cc2ccccc2Cl)c1=O	>57	u
O=C1CC(c2ccco2)CC(O)=C1C=NCC1NCCc2ccccc21 (stereo not given)	>57	-6%
Cc1c(C(=O)N2CCN(C)CC2)oc2c1C(=O)CC(C)(C)C2	>57	-4%
Cc1noc(C)c1-c1nccc(NCc2cccs2)n1	>57	-8%
O=C(C1CCCO1)N1CCC(c2nc3ccccc3[nH]2)CC1 (stereo not given)	>57	6%
Cc1cc2n(n1)C(c1sccc1C)Nc1c(C)cccc1-2 (stereo not given)	>57	1%
COc1cc2c(cc1OC)[C@@]13CCN4C=C5CCO[C@H]6CC(=O)N2[C@@H]1[C@@H]6[C@H]5C[C@H]43	>57	-2%[8 µM]
COc1ccc(CNc2ncnc3ccc(-c4ccc(C(=O)N(C)C)cc4)cc23)c(OC)c1	>11	u
Cc1ccc2c(c1)[nH]c1c(=O)n(CCN3CCNCC3)cnc12	>57	1%
O=C1c2ccccc2NC(c2ccco2)N1O (stereo not given)	x	-3%
O=S(=O)(Cc1ccccc1)N1CCCC(c2nc(-c3ccc(F)cc3)no2)C1 (stereo not given)	u	u
O=C(C1CCCN(Cc2ccccc2Br)C1)N1CCCCC1 (stereo not given)	>57	5%
CC1=C(C(=O)NCc2ccccc2)C(c2cccs2)n2ncnc2N1 (stereo not given)	>57	-5%
Cc1nc(CCNS(=O)(=O)c2cccs2)cs1	>57	-9%
O=C(CSc1nnnn1-c1ccccc1)Nc1nc(-c2ccccc2)ns1	>57	-9%

Entries shown so far with an aryl thioether with sulfur outside any ring:
SMILES	SmPrx2 inh	LT uptake inh
CCn1c(SCC(=O)Nc2nc3c(s2)CCCC3)nnc1-c1ccccc1	>57	-6%
CCC1CCCCN1C(=O)CSc1nc2c([nH]c3ccccc32)c(=O)n1C (stereo not given)	>57	11%
CSc1cccc(NS(=O)(=O)c2ccccc2)c1	x	-17%
O=C(CCCn1c(SCC(=O)c2ccc(O)c(O)c2)nc2ccccc2c1=O)NCC1CCCO1 (stereo not given)	>57	5%
CCCn1c(SCc2cc(=O)oc3ccc4ccccc4c23)n[nH]c1=O	>57	u
Cc1csc(N(C)C(=O)CSc2nnc(COc3cccc4ccccc34)o2)n1	>57	-8%
CCOC(=O)CSc1nc2c(c(=O)[nH]c(=O)n2C)n1CCCc1ccccc1	>57	x
C=CCSc1nc2c(c(=N)n1CC=C)C1CCCC1S2 (stereo not given)	>57	-1%
CC(C)(C)c1nc2ccccc2c2nnc(SCC(=O)NCc3ccco3)n12	>57	-6%
CCOC(=O)CNC(=O)CSc1nnc(SCC(=O)NCC(=O)OCC)s1	>57	2%
COc1ccc(C(=O)NC(C)c2nnc(SCC(=O)Nc3nc4ccccc4s3)n2C)cc1 (stereo not given)	>57	x
CCOC(=O)CNC(=O)CSc1nnc(Cn2cnc3ccccc32)n1C	>57	1%
CCOC(=O)CSc1nnc(-c2ccc(Cl)cc2Cl)o1	>57	-7%
O=C(CSc1nnnn1-c1ccccc1)Nc1nc(-c2ccccc2)ns1	>57	-9%
